Assay outcomes (PubChem BioAssay)
ClpP mod = qHTS Assay for Activators of ClpP | purified B. subtilis ClpP, FRET peptide cleavage, 20 min | ATP-dependent Clp protease proteolytic subunit (Bacillus subtilis (strain 168)), P80244 | hit rate 1.9% among 340,000 | Potency, µM (highest dose often 57.5 µM), for the others: at the highest dose activity change, negative = active; active = well fitted falling curve with a large enough effect; inconclusive = small, poorly fitted or top-dose-only effect; inactive = no such curve, though single readings can be large or run the other way; also: the source files actives as falling curves though it sought activators and does not explain the sign; nearly all actives have a fitted effect of over 65% in size; many hits overshoot -100%
Target sequence (P80244 whole entry, looked up): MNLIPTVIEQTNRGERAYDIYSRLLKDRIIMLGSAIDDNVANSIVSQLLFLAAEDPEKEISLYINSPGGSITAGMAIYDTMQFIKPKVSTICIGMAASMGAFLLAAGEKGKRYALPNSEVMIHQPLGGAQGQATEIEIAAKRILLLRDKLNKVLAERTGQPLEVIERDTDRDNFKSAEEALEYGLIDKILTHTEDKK
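Purified B. subtilis ClpP, 10 microg/mL final in Tris/HCl pH8 with KCl, BSA, glycerol and Tween-20, cleaved an Abz/nitrotyrosine-quenched decapeptide. Fluorescence (ex 320, em 430) was read at 0 and 20 min at room temperature. Delta was normalized to 5.8 microM ADEP and DMSO/no-enzyme controls.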
An asterisk follows results filed as active; u = inconclusive. Potency is read from the fitted curve at half-maximal effect. This is a subset; rates above refer to the full screens.

entry	compound	ClpP mod
1	CS(=O)(=O)c1ccc(S(=O)(=O)N2CCN(C(=O)C(O)c3ccccc3)CC2)cc1 (centres undefined)	-0.7%
2	COC(=O)[C@@H]1ON2OCC(C)=C3CCCC[C@@]32[C@H]1C(=O)OC	-2.6%
3	CCOc1ccc(-c2c(C)nn3c(C)c(C(=O)NCC(C)c4ccccc4)cnc23)cc1OCC (centres undefined)	-9.8%
4	OC(c1ccccc1)(c1ccccc1)C1CCN(CCCOc2ccc(F)cc2)CC1	1.2%
5	COc1ccc(Cl)cc1C1CC(=O)Nc2cc3c(cc21)OCCO3 (centres undefined)	0.8%
6	Cc1ccc(C)c(N2CCN(CCCNC(=O)c3ccc4nc(N5CCCCC5)sc4c3)CC2)c1	-12.1%
7	Cc1ccc(-c2nc(Cn3c(=O)cc(-c4ccccc4)c4c(C)nn(C)c43)c(C)o2)cc1	-6.1%
8	COc1ccc2nc(SCC(O)c3cccc(Br)c3)[nH]c2c1 (centres undefined)	-1.8%
9	Cc1cccc2c(/C=C/c3ccc(N(C)C)cc3)ccnc12	1.1%
10	Cc1c(Cl)cccc1NC(=O)N1CCC(CN2CCOCC2)CC1	2.4%
11	COc1ccc(CN2CCc3c(c(=O)n4ncc(C(=O)N5CCN(c6ccccc6OC)CC5)c4n3C)C2)cc1	-27.1%
12	COc1ccc(Br)cc1CNC(=O)Cn1ncn2nc(-c3cccs3)cc2c1=O	-15.2%
13	CCOc1ccc(CCNC(=O)c2sc3ncccc3c2-n2cccc2)cc1OCC	-3.4%
14	CC(=O)Nc1ccc(C2Nc3c(C)cc(C)cc3-c3cc(C)nn32)cc1 (centres undefined)	-4.9%
15	Cc1cccc(OC(C)C(=O)Nc2ncn[nH]2)c1 (centres undefined)	2.6%
16	Cc1c(CNC2CCCCCC2)c(C(=O)O)c(C)n1Cc1c(F)cccc1Cl	0.7%
17	Cc1nnc(NC(=O)c2nc(SC(C)C)ncc2Cl)s1	-1.8%
18	O=C(CSc1ccccc1)N1CCc2c([nH]c3ccccc23)C1c1ccc(Cl)cc1 (centres undefined)	-2.5%
19	CCc1nnc(SCc2nc(-c3ccc(OC)cc3)oc2C)c2cc3sccc3n12	u
20	CCOC(=O)C1=C(CN2CCN(c3ccccc3F)CC2)NC(=O)NC1c1ccc(Cl)cc1 (centres undefined)	-0.1%
21	CCOC(=O)CNC(=O)CSc1cn(CC(=O)N2CCCCCC2)c2ccccc12	-0.6%
22	COc1cc(-c2nnc(SCCOc3cc(C)cc(C)c3)o2)cc(OC)c1OC	-4.5%
23	Cc1ccc(CCNC(=O)c2cc3sccc3n2Cc2ccc(C)cc2)cc1	-29.5%
24	Cc1cc(Nc2ccc(Cl)cc2C)nc(-n2nc(C)cc2C)n1	-1.4%
25	CCn1c2c(c(=O)n3ncc(C(=O)N4CCN(c5ccc(Cl)cc5)CC4)c13)CN(Cc1ccc(OC)cc1)CC2	u
26	COc1cccc(C(=O)N2CCC[C@@H]2C(=O)N2CCC[C@@H]2C(=O)NCc2ccccc2Cl)c1	0.9%
27	Cc1cc(C)c(Cn2c3ccccc3c3cnn(CC(=O)NCCc4ccccc4)c(=O)c32)c(C)c1	-17.0%
28	COc1ccc(-c2nnc(SCC(=O)Nc3ccc(Cl)cc3)s2)cc1	-22.3%
29	CCS(=O)(=O)N1CCc2cc(C(=O)NCc3ccccc3)ccc21	1.3%
30	O=C(NC(=O)c1ccc(F)cc1)Nc1ccc(-c2cc(C(F)(F)F)nn2-c2ccccc2)cc1	-6.5%
31	Cc1cccc(CSc2nc(-c3cccs3)ccc2C#N)c1	4.1%
32	Cc1cc(C)cc(NC(=O)CCc2c(C)nn(-c3ccc(N4CCCC4)nn3)c2C)c1	-0.6%

3 compounds out of the list, arranged by number of heavy atoms, ascending:
entry	compound	ClpP mod
31	Cc1cccc(CSc2nc(-c3cccs3)ccc2C#N)c1	4.1%
32	Cc1cc(C)cc(NC(=O)CCc2c(C)nn(-c3ccc(N4CCCC4)nn3)c2C)c1	-0.6%
30	O=C(NC(=O)c1ccc(F)cc1)Nc1ccc(-c2cc(C(F)(F)F)nn2-c2ccccc2)cc1	-6.5%

(list continues)
entry	compound	ClpP mod
33	CC(C)OC(=O)c1ccc(Cn2nnc3sc4c(c3c2=O)CCCC4)cc1	-8.5%
34	CCCc1cc(=O)[nH]c(SCc2nc(-c3ccccc3F)no2)n1	1.4%
35	COc1cccc(Cn2c(CNC(=O)c3cc([N+](=O)[O-])ccc3Cl)nc3cccnc32)c1	-4.8%
36	COc1cc(NC(=O)C2CCN(c3nnc(C)c4c(C)n(-c5ccccc5)nc34)CC2)cc(OC)c1	u
37	CCOC(=O)c1cnc2ccc(OC)cc2c1Nc1ccc(OCc2ccccc2Cl)cc1	-0.2%
38	Cc1cccc(C)c1NC(=O)C1CCCN1S(=O)(=O)c1cccc2nsnc12 (centres undefined)	0.9%
39	Cc1ccc(NC(=O)CSc2nc3n[nH]c(C)c3c(=N)n2-c2cccc(C)c2)cc1	116.7%
40	Cc1ccc(NC(=O)C(=O)NCC(c2cccnc2)N2CCOCC2)cc1C (centres undefined)	-0.7%
41	COc1ccc(-c2nc(C)c(CCNC(=O)c3c(F)cccc3F)s2)cc1	4.2%
42	CCC1CN(C(=O)N2CCC(C(=O)NCCN(CC)CC)CC2)c2ccccc2O1 (centres undefined)	-2.0%
43	OC(C1=C/C(=C\c2ccncc2)c2ccccc21)c1ccncc1 (centres undefined)	-1.4%
44	COC(=O)/C=C1\OCc2ccc(C)cc21	-0.8%
45	CCCN(CCC)CC(O)Cn1cc(/C=C/C(=O)c2ccc(OC)cc2)c2ccccc21 (centres undefined)	-9.7%
46	COc1ccccc1-c1nn2c(=O)cc(CN3CCN(C(=O)Nc4ccc(C)cc4Cl)CC3)nc2s1	-17.4%
47	C=C[C@@H]1c2cc(C)ccc2N(S(=O)(=O)c2ccc(C)cc2)[C@H](c2ccc(C(C)(F)F)cc2)C1(C#N)C#N	0.4%
48	COc1ccc(OC)c(NC(=O)CSC2=Nc3ccccc3C3=NC(CC(=O)NCc4ccco4)C(=O)N23)c1 (centres undefined)	0.2%
49	Cc1c(Cl)cccc1NC(=O)CCS(=O)(=O)c1ccc2c(c1)CC(C)N2C(=O)C1CC1 (centres undefined)	-3.1%
50	O=C(Nc1cccc(C(=O)OCc2cc(=O)n3nc(C4CC4)sc3n2)c1)c1ccccc1	0.9%
51	CCc1ccccc1NC(=O)c1cnn2c(C(F)(F)F)cc(-c3ccc(OC)c(OC)c3)nc12	-2.8%
52	COc1ccc(C2c3c(n(C)c4ccccc34)C(=O)N2CC(=O)Nc2ccc(C)cc2Cl)cc1 (centres undefined)	31.6µM*
53	CC(Sc1nnc(-c2ccccc2)n1C)C(=O)NCc1ccco1 (centres undefined)	0.5%
54	O=C(CN1C(=O)C(c2ccc(F)cc2)=NC12CCCCCC2)Nc1ccc(F)c(Cl)c1	0.9%
55	Cc1c(NC(=O)Nc2ccc(F)c(Cl)c2)c(=O)n(-c2ccccc2)n1C	0.0%
56	CC(C)COc1ccc(C(=O)N2CCCCC2CCN2CCCCC2)cc1 (centres undefined)	-2.3%
57	CCC(=O)N1Cc2cc(C(=O)NCC(F)(F)F)nc(-c3cccc(-c4cncnc4)c3)c2[C@@H]1CCO	0.9%
58	COC(=O)c1c(SC)nc2ccccc2c1OCc1ccc(Cl)cc1	-10.1%
59	CCCCNc1nc2c(S(=O)(=O)c3ccc(C)cc3)nnn2c2ccsc12	u
60	CCOC(=O)c1nnn(CC(=O)NC(=O)Nc2ccccc2F)c1C(=O)OCC	-2.6%
61	COc1ccc(C(=O)NCC(c2ccc(N(C)C)cc2)N2CCCC2)c(OC)c1 (centres undefined)	-2.6%
62	O=C(NCCc1ccccc1)c1cc(-c2ccc(Cl)c(Cl)c2)on1	0.4%
63	Cc1ccccc1Cn1c2ccccc2c2cnn(CC(=O)N3CCC(C)CC3)c(=O)c21	u
64	COc1ccc(S(=O)(=O)N(CCc2ccccc2)CC(=O)Nc2cc(C)cc(C)c2)cc1OC	-1.3%
65	COc1ccc(C(=O)N(c2ccc(C)cc2)S(=O)(=O)c2ccc(C)cc2)cc1	-1.7%
66	CCOc1ccc(CCNC(=O)c2ccc3c(c2)N(Cc2ccc(C)cc2)CCS3)cc1	u
67	Cc1ccc(C)c(NC(=O)N2CCN(c3nnc(C)c4c(C)n(-c5ccccc5)nc34)CC2)c1	-13.9%
68	O=C(CSc1ncc(-c2ccccc2)[nH]1)Nc1cccc(Br)c1	-4.9%
69	CC(C)(C)C(=O)c1c(N)[nH]c(C(=O)c2ccccc2)c1-c1c(F)cccc1F	-3.6%
70	COC(=O)C1(C(=O)OC)CCCCN(S(=O)(=O)c2ccc(C)cc2)CCC1	-1.8%
71	Nc1c(-c2ccc(F)cc2)nc2ncccn12	-4.1%
72	O=C(CN1CCSc2ccccc21)N1CCN(c2ccc(F)cc2)CC1	-2.6%
73	COc1ccc(Br)cc1CN1C(=O)c2ccccc2C1C(=O)NC1CCCCCC1 (centres undefined)	2.2%
74	O=C(CC1N=C2c3ccccc3N=C(SCC(=O)Nc3cccc(C(F)(F)F)c3)N2C1=O)NCc1cccs1 (centres undefined)	-18.6%
75	CCOC(=O)C1CCCN(C(=O)Cn2ncc3c4ccccc4n(Cc4ccccc4)c3c2=O)C1 (centres undefined)	4.6%
76	CCCCOC(=O)c1ccc(Nc2ncnc3[nH]ncc23)cc1	3.8%
77	CCC(c1nnnn1-c1ccc2c(c1)OCCO2)N1CCN(C(=O)c2ccco2)CC1 (centres undefined)	0.2%
78	Cc1ccccc1C(=O)N1CCC[C@@H]1C(=O)N1CCC[C@H]1C(=O)NCc1ccncc1	-2.8%
79	COc1cc(OC)c(NC(=O)c2c(C)oc3ncnc(N4CCCCC4)c23)cc1Cl	-2.3%
80	Cc1oc(-c2cccc(Cl)c2)nc1CS(=O)(=O)CC(=O)NC(C)CCc1ccccc1 (centres undefined)	-11.0%
81	COc1cccc(-n2c(SCC(=O)Nc3c(C)cc(C)cc3C)nc3c([nH]c4ccccc43)c2=O)c1	-15.8%
82	COc1ccc2c(c1OC)C(=O)N1c3ccccc3C(=O)N(Cc3ccco3)C21 (centres undefined)	-3.8%
83	CCN(CC)c1cc(C)c2cc(NC(=O)c3ccc(OC)c(OC)c3)ccc2n1	-19.4%
84	O=c1cc(-c2ccccc2)n2c(SCc3ccccc3)nnc2[nH]1	u
85	COc1ccccc1Cn1c(CNS(=O)(=O)c2cccc([N+](=O)[O-])c2)nc2cccnc21	-14.8%
86	COC(=O)[C@@]1(Sc2ccc(C)cc2)CC(=O)N(c2ccc(Cl)cc2)[C@@H]1c1ccccc1	-2.0%
87	CCOC(=O)c1c(C)[nH]c(C)c1S(=O)(=O)NCC(=O)Nc1cccc(C(F)(F)F)c1	-33.8%
88	O=C(c1ccc2c(c1)N(Cc1ccc(F)cc1)C(=O)c1ccccc1S2(=O)=O)N1CCN(Cc2ccccc2)CC1	-0.2%

The listing continues.
entry	compound	ClpP mod
89	O=C(COc1ccc(Cl)cc1)OCc1cc(=O)n2nc(C3CCCCC3)sc2n1	u
90	Cc1csc(-c2nc3ccccc3n2C(C(=O)NC(C)(C)C)c2ccccc2)c1 (centres undefined)	4.5%
91	CNC(=O)CCCN1C(=O)c2cccnc2Sc2ccccc21	-0.9%
92	O=C(Cn1nc(C(F)(F)F)c2c1CCC2)Nc1ccc(Cl)cc1	-1.3%
93	COc1ccc(N2CCN(C(=O)C3CCN(S(=O)(=O)c4cn(C)cn4)CC3)CC2)cc1	-8.7%
94	CC(C)n1nnnc1C1c2ccccc2C(=O)N1Cc1cccc(F)c1 (centres undefined)	-0.8%
95	Cc1cccc(-c2noc(CCCC(=O)NCc3ccco3)n2)c1	0.6%
96	C=Cc1ccc(Cn2c(C(=O)O)c(CNC3CCCCC3)c3ccc(OC)cc32)cc1	-10.5%
97	CCc1cccc(C)c1NC(=O)CSc1nc2ccccc2nc1N1CCOCC1	3.5%
98	CCCC(CCC)C(=O)Nc1nnc2n1CCS2	-1.8%
99	CCc1ccc(Nc2nnc(-n3nc(C)cc3C)c3ccccc23)cc1	0.8%
100	CC(=O)c1cccc(NC(=O)Cn2ccn3nc(-c4ccccc4)cc3c2=O)c1	0.3%
101	CCC(C)NC(=O)Cn1c(=O)c2cccn2c2ccc(F)cc21 (centres undefined)	-16.3%
102	Cc1ccc(-c2nc3c(c(SCC(=O)N4CCCCC4)n2)Cc2cc(C)ccc2O3)cc1	-4.0%
103	O=C(NCC(c1cccs1)S(=O)(=O)c1cccs1)c1ccccc1F (centres undefined)	-1.1%
104	Cc1ccc(-n2c(=O)cc(N3CCN(c4ccccc4Cl)CC3)[nH]c2=O)cc1	-0.1%
105	COCCCNC(=O)C1CCCN(c2ncnc3onc(C)c23)C1 (centres undefined)	-3.6%
106	CN(CCCN(Cc1ccc(Cl)cc1)c1ccc(Br)cn1)C(=S)NCCCc1cnc[nH]1	-4.6%
107	CCOc1ccc(-n2c(SCC(=O)NCc3ccccc3)nc3n[nH]c(C)c3c2=N)cc1	133.3%

In the list so far, these contain a furan ring, fused or not.
entry	compound	ClpP mod
48	COc1ccc(OC)c(NC(=O)CSC2=Nc3ccccc3C3=NC(CC(=O)NCc4ccco4)C(=O)N23)c1 (centres undefined)	0.2%
53	CC(Sc1nnc(-c2ccccc2)n1C)C(=O)NCc1ccco1 (centres undefined)	0.5%
77	CCC(c1nnnn1-c1ccc2c(c1)OCCO2)N1CCN(C(=O)c2ccco2)CC1 (centres undefined)	0.2%
79	COc1cc(OC)c(NC(=O)c2c(C)oc3ncnc(N4CCCCC4)c23)cc1Cl	-2.3%
82	COc1ccc2c(c1OC)C(=O)N1c3ccccc3C(=O)N(Cc3ccco3)C21 (centres undefined)	-3.8%
95	Cc1cccc(-c2noc(CCCC(=O)NCc3ccco3)n2)c1	0.6%
